Measles inh: inhibitors of measles virus growth in infected cells; 33,000 tested, 0.1% active; z-score (test concentration not listed); AID 745; infected Vero cells, GFP fluorescence, 64 h; active compounds read low;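 active means z-score under -3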;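 further: score is relative to mean and SD of the compound wells of a plate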
Starred values were filed as active, the others as inactive.

Screening CC1C(c2ccccc2)N(C)C(c2ccccc2)CC1(O)c1ccc(F)cc1 (stereo not drawn) returned Measles inh -1.
O=C(CSCc1ccccc1F)N1CCc2ccccc21 was read as Measles inh 0.79.
`CCOC(=O)c1cnc2c(Cl)cccc2c1Nc1ccccc1OC` gave Measles inh -0.07.
For C=CCNC(=O)CN1C(=O)C(CC)Oc2ccccc21 (stereo not drawn) the results were Measles inh 1.2.
`Cc1cccn2c(=O)c3cc(C(=O)N4CC(C)OC(C)C4)sc3nc12` (stereo not drawn) gave Measles inh 1.1.
For CCCSC(=Nc1ccc(OC)cc1)NC#N the results were Measles inh 0.05.
For O=C(Nc1ccc(F)cc1)C1CCN(S(=O)(=O)c2cccs2)CC1 the results were Measles inh 1.4.
For COc1ccc(C2NC(=O)c3c(sc4c3CCN(C)C4)N2)c(OC)c1 (stereo not drawn) the results were Measles inh 0.81.
Screening CCOC(=O)CSc1ccc(C(=O)N2CCN(C)CC2)cc1[N+](=O)[O-] returned Measles inh 0.3.
Cc1ccc(CCN2CC(C(=O)NC3CCCCC3C)CC2=O)cc1 (stereo not drawn) was read as Measles inh 0.29.
For CCS(=O)(=O)N1CCN(c2ccc([N+](=O)[O-])c(NC3CC3)c2)CC1 the results were Measles inh 1.5.
Screening CC(=O)Oc1ccc(N(C(C)=O)S(=O)(=O)c2cccs2)c2ccccc12 returned Measles inh -0.24.
`Cc1ccc(-n2ncc3c(=O)[nH]c(SCC(=O)Nc4ccccc4C(F)(F)F)nc32)cc1C` gave Measles inh 0.94.
For CC(C)(C)n1nc2c(c1NC(=O)c1ccc3ccccc3c1)CSC2 the results were Measles inh 0.3.
COc1ccc(S(=O)(=O)n2cnc(C)c2)cc1OC was read as Measles inh -0.5.
CC1=C(C(=O)OCCc2ccccc2)C(c2ccc(C)cc2)C2=C(CCCC2=O)N1 (stereo not drawn) was read as Measles inh -1.3.
For Cc1ccc(C2c3sc(=O)[nH]c3SC3C(=O)NC(=O)C32)cc1 (stereo not drawn) the results were Measles inh -0.36.
Screening O=C(Cn1c(=O)c2sccc2n(CC(=O)Nc2ccc(Br)cc2)c1=O)NCc1ccco1 returned Measles inh -0.11.
For CCc1ccccc1NC(=O)c1ccc(F)c(S(=O)(=O)N2CCC(C)CC2)c1 the results were Measles inh -0.08.
`Cc1ccc(Cl)cc1NC(=O)COc1cc(C)c(Cl)c(C)c1` gave Measles inh 1.9.
`COc1cc2c(cc1OC)C(C(=O)NCCN(C)C)C1c3ccccc3CCN1C2=O` (stereo not drawn) gave Measles inh -0.54.
For O=C(CSc1nc2ccccc2o1)Nc1cc(C(F)(F)F)cc(C(F)(F)F)c1 the results were Measles inh -0.66.
For CCOc1ccc(N2C(N)=NC(N)=NC23CCCC3)cc1 the results were Measles inh 1.8.
`CCOc1cc(C2C(C(=O)OC)=C(C)NC3=C2C(=O)CC(c2ccccc2)C3)cc(Br)c1O` (stereo not drawn) gave Measles inh -0.58.
`Cc1c(NC(=O)c2coc(=O)c3ccccc23)cccc1[N+](=O)[O-]` gave Measles inh -0.4.
Screening COc1cccc(C(=O)Oc2cccc(OC(=O)c3cccc(OC)c3)c2)c1 returned Measles inh 2.3.
Clc1ccc(-n2ncc3c(Nc4ccc(Br)cc4)ncnc32)cc1 was read as Measles inh -0.36.
Screening Cc1cccc(NC(=O)CCCn2c(=S)[nH]c3ccccc3c2=O)c1 returned Measles inh -0.53.
For O=C(c1scc2c1CCCC2)N1CCN(c2ccc(F)cc2)CC1 the results were Measles inh -0.3.
For N#Cc1c(NC(=O)c2cc(-c3ccc(Cl)cc3)on2)sc2c1CCC2 the results were Measles inh 0.34.

3 compounds picked at random from the list so far:
`COc1cc2c(cc1OC)C(C(=O)NCCN(C)C)C1c3ccccc3CCN1C2=O` (stereo not drawn) gave Measles inh -0.54.
For O=C(c1scc2c1CCCC2)N1CCN(c2ccc(F)cc2)CC1 the results were Measles inh -0.3.
CC1=C(C(=O)OCCc2ccccc2)C(c2ccc(C)cc2)C2=C(CCCC2=O)N1 (stereo not drawn) was read as Measles inh -1.3.

Next part
CCCCOC(=O)C1=C(C)NC2=C(C(=O)CCC2)C1c1ccncc1 (stereo not drawn) was read as Measles inh 0.95.
Screening CCOc1ccccc1C1C(C(=O)OCCOC)=C(C)NC2=C1C(=O)CC(c1ccc(Cl)cc1)C2 (stereo not drawn) returned Measles inh -0.28.
O=c1[nH]cnc2ccc([N+](=O)[O-])cc12 was read as Measles inh 0.82.
For CCC(=O)N1c2ccc(S(=O)(=O)NCc3cccs3)cc2CC1C (stereo not drawn) the results were Measles inh 0.66.
CCOCCn1cnc2sc(C(=O)N3CCN(c4ccccn4)CC3)c(C)c2c1=O was read as Measles inh -0.44.
CCC(C)(C)C1CCc2sc3ncnc(NCCCN(C)C)c3c2C1 (stereo not drawn) was read as Measles inh -0.45.
For O=C(CSc1c2c(nc3ccc(Cl)cc13)CCCC2)NCC1CCCO1 (stereo not drawn) the results were Measles inh -0.56.
`Cc1c(NC(=O)Cc2ccccc2)cccc1-c1nc2ncccc2o1` gave Measles inh 0.07.
For NC(=O)CSc1nc2c(sc3ccccc32)c(=O)n1CCCN1CCCC1 the results were Measles inh -0.58.
For Cc1ccc(S(=O)(=O)N2CCN(c3ccc([N+](=O)[O-])c(NCCOc4ccccc4)c3)CC2)cc1 the results were Measles inh -1.1.
COCc1cc(C)nc(SCC(=O)Nc2ccc(OC)cc2)c1C#N was read as Measles inh -0.58.
For Cc1n[nH]c(C)c1S(=O)(=O)N1CCN(c2ccc(F)cc2)CC1 the results were Measles inh -0.08.
Screening CCSC1=NC(=Cc2cc3c(cc2Cl)OCO3)C(=O)S1 returned Measles inh 0.23.
For O=C(NCCN1CCOCC1)c1ccc(CS(=O)(=O)c2ccc(Cl)cc2)o1 the results were Measles inh 0.65.
For Cc1ccccc1Nc1c(-c2ccsc2)nc2ccccn12 the results were Measles inh 0.43.
CCOC(=O)c1cc2c(=O)n3ccccc3nc2n(CCOC)c1=NC(=O)c1cccc(C(F)(F)F)c1 was read as Measles inh 2.1.
COc1ccc(OC)c(C=Cc2ccc3cccc(O)c3n2)c1 was read as Measles inh 2.2.
For COC(=O)c1cnn2c(C(F)(F)F)cc(-c3cccs3)nc12 the results were Measles inh -1.6.
For COc1ccc(OC)c(N(CC(=O)Nc2cccnc2)S(=O)(=O)c2ccccc2)c1 the results were Measles inh 0.34.
For N#Cc1cc2c(nc1SCC(=O)Nc1cnc3ccccc3c1)CCCCC2 the results were Measles inh 0.19.
For Cc1[nH]n(-c2ccccc2)c(=O)c1CCC(=O)O the results were Measles inh -0.37.
Screening CCN(CC)c1ncnc2sc(C(=O)Nc3ccccc3OC)c(C)c12 returned Measles inh -0.03.
`O=[N+]([O-])c1cccc(S(=O)(=O)N2CCN(c3ccc(Cl)cc3[N+](=O)[O-])CC2)c1` gave Measles inh -1.9.
`COCCCNc1nc2c(c(=O)n(C)c(=O)n2C)n1Cc1ccc(Cl)cc1` gave Measles inh 1.8.
Screening Brc1ccc(C2=CCn3nnnc3N2)cc1 returned Measles inh -0.37.
Screening O=C(c1cnc2n(c1=O)CCS2)N(Cc1ccccc1)c1ccccc1 returned Measles inh -0.05.
Cc1cccc(-c2nc3ccccc3c(=O)n2CC(=O)Nc2ccc(C)cc2C)c1 was read as Measles inh 0.9.
Screening COc1ccc(-n2nc3c(c2NC(=O)C2CC2)CSC3)cc1 returned Measles inh -0.31.
`C=C(C)c1cccc(C(C)(C)NC(=O)N2CCCCCC2)c1` gave Measles inh -0.45.
CCOc1cc(C(c2c(C)n(C)n(-c3ccccc3)c2=O)c2c(C)n(C)n(-c3ccccc3)c2=O)ccc1O was read as Measles inh 1.
`O=C1c2ccccc2C(=O)c2c1ccc(C(=O)Nc1cccc([N+](=O)[O-])c1)c2[N+](=O)[O-]` gave Measles inh -0.6.
`CCCCC(C(=O)Nc1ccc(Cl)cc1)N1C(=O)c2ccccc2C1=O` (stereo not drawn) gave Measles inh 1.3.
Screening COc1cc([N+](=O)[O-])ccc1-c1ccc(CO)o1 returned Measles inh 0.9.
Screening COc1ccc(NC(=O)COc2nsnc2N2CCOCC2)cc1 returned Measles inh -0.74.
For CC(C)c1ccc(NC(=O)C(C(C)C)N2C(=O)c3ccccc3C2=O)cc1 (stereo not drawn) the results were Measles inh 0.12.
COCCn1cc(C(=O)NCc2ccc(C)o2)c2c3ccccc3n(C)c2c1=O was read as Measles inh 0.14.
Screening CCOC(=O)c1c(C)n(-c2ccc(Br)cc2)c2ccc(O)cc12 returned Measles inh 0.47.
COc1ccc(NC(=O)CSc2nc3ccccc3c(=O)n2-c2ccc(Cl)cc2)cc1 was read as Measles inh -0.49.
COc1cccc(C(=O)Nc2c3c(nn2-c2ccc(C)cc2)CSC3)c1OC was read as Measles inh -0.43.
For COc1cc(OC)cc(C(=O)NCc2cc(OC)c(OC)c(OC)c2)c1 the results were Measles inh -0.39.
`Cc1cccc(Oc2coc3cc(OC(=O)c4cccs4)ccc3c2=O)c1` gave Measles inh 1.1.
Screening Cc1sc2c(c1C)c(=O)n(-c1ccccc1)c(=O)n2Cc1ccccc1F returned Measles inh -0.3.
Screening Cc1ccccc1OCC(=O)Nc1cccc(NC(=O)c2ccc(Br)c([N+](=O)[O-])c2)c1 returned Measles inh -1.1.
`O=C(O)CN1C(=O)CSC1=O` gave Measles inh -0.24.
For COc1ccc2c(c1)C(C)=CC(C)(C)N2S(=O)(=O)c1ccc(Cl)cc1 the results were Measles inh 0.01.
CCCN1Cc2cccc(C(=O)Nc3ccc(C)cc3)c2C1=O was read as Measles inh 0.02.
Screening CCOC(=O)C(=O)N1N=C(CC(C)C)CC1(O)C(F)(F)F (stereo not drawn) returned Measles inh 0.24.
`CC(=O)C1C(=O)CC(C)(O)C(C(C)=O)C1C=Cc1ccccc1` (stereo not drawn) gave Measles inh -0.16.
`COc1ccccc1N1C(=O)c2ccccc2NC1c1sccc1C` (stereo not drawn) gave Measles inh -0.37.
Screening CCOc1ccc(NC(=NS(=O)(=O)c2ccccc2)Nc2nc(C)cc(C)n2)cc1 returned Measles inh -1.4.
Cc1cc(C)c2[nH]c(C)c(CN3CCCC(C)C3)c(=O)c2c1 (stereo not drawn) was read as Measles inh -0.59.
CC(=O)c1ccc(NC(=O)C2CC(=O)N(c3ccccc3)C2)cc1 (stereo not drawn) was read as Measles inh -2.
Screening O=C(NCCC1=CCCCC1)C1CCC(CNc2nc(=S)[nH]c3ccccc23)CC1 (stereo not drawn) returned Measles inh -0.84.
O=C(NC1CCCC1)C(Cc1ccccc1)NS(=O)(=O)c1cccs1 (stereo not drawn) was read as Measles inh 0.38.
`CC(c1ccccc1)C1CC(=O)N(c2ccc(I)cc2)C1=O` (stereo not drawn) gave Measles inh -0.78.
Clc1cccc2nnc(-c3cccc(I)c3)n12 was read as Measles inh 1.4.
`COc1ccc(CN2C(=O)CC(C(=O)Nc3ccccc3OC)SC2=Nc2ccccc2F)cc1` (stereo not drawn) gave Measles inh 1.4.
For N#CCCSc1ccccc1NC(=O)c1ccc(S(=O)(=O)N2CCc3ccccc32)cc1 the results were Measles inh 0.45.
For COc1ccc(C2C(C(=O)Nc3nc4ccccc4s3)CC(=O)N2c2ccc(OC)cc2)cc1 (stereo not drawn) the results were Measles inh -0.53.
`CC(=O)Oc1ccc(Br)cc1C=Cc1ccc2cccc(OC(C)=O)c2n1` gave Measles inh 5.2.
`O=c1[nH]c2ccc(F)cc2c(=O)o1` gave Measles inh -0.23.
O=S(=O)(NC1CCCCC1Oc1ccccc1)c1ccc(Cl)cc1 (stereo not drawn) was read as Measles inh -0.99.
Screening CCc1ccc(NC(=O)c2ccc(N3CCCC3)c([N+](=O)[O-])c2)cc1 returned Measles inh -0.05.
For O=C(CCN1C(=O)COc2ccccc21)NCCN1CCc2ccccc2C1 the results were Measles inh -6.4*.
Screening N#Cc1ccc(-c2ccncc2)nc1SCc1ccc(F)cc1 returned Measles inh -0.16.
Screening O=[N+]([O-])c1cccc(C=Nc2ccc3oc(-c4cccc(I)c4)nc3c2)c1O returned Measles inh -0.62.
`CCN1CCCC1CNC(=O)c1c(O)c2c([nH]c1=O)CCCC2` (stereo not drawn) gave Measles inh -1.
Screening Cc1cccc(CC(C(=O)O)C(C)C(=O)O)c1 (stereo not drawn) returned Measles inh 0.17.
Screening C=CCN1C(=O)C(O)(CC(=O)c2cccc(Br)c2)c2ccccc21 (stereo not drawn) returned Measles inh 1.2.
For Cc1c(C(=O)NC2CCCc3ccccc32)oc2ccc(S(=O)(=O)N3CCCCC3)cc12 (stereo not drawn) the results were Measles inh 1.6.
`O=C(O)CCN1C(=O)c2ccc(F)cc2C1=O` gave Measles inh -0.45.
For CCCSc1oc(-c2ccc(C)cc2)nc1S(=O)(=O)c1ccc(F)cc1 the results were Measles inh 0.72.
Screening CCOC(=O)c1c(NC(=O)c2ccc(F)cc2)sc(C(=O)Nc2cccc(Cl)c2C)c1C returned Measles inh 0.87.
`CCN(CC)CCNc1ccnc2c1ccc1nsnc12` gave Measles inh -0.17.
Screening Cn1c(=O)c2c(nc(SCc3cccc(Br)c3)n2C)n(C)c1=O returned Measles inh -0.15.

Some of these compounds in order of count of non-hydrogen atoms, ascending.
Screening Cc1cccc(CC(C(=O)O)C(C)C(=O)O)c1 (stereo not drawn) returned Measles inh 0.17.
Screening Cn1c(=O)c2c(nc(SCc3cccc(Br)c3)n2C)n(C)c1=O returned Measles inh -0.15.
Screening C=CCN1C(=O)C(O)(CC(=O)c2cccc(Br)c2)c2ccccc21 (stereo not drawn) returned Measles inh 1.2.
For CCCSc1oc(-c2ccc(C)cc2)nc1S(=O)(=O)c1ccc(F)cc1 the results were Measles inh 0.72.
For O=C(CCN1C(=O)COc2ccccc21)NCCN1CCc2ccccc2C1 the results were Measles inh -6.4*.
Screening CCOC(=O)c1c(NC(=O)c2ccc(F)cc2)sc(C(=O)Nc2cccc(Cl)c2C)c1C returned Measles inh 0.87.

4 consecutive records from above, quoted:
For CCCSc1oc(-c2ccc(C)cc2)nc1S(=O)(=O)c1ccc(F)cc1 the results were Measles inh 0.72.
Screening CCOC(=O)c1c(NC(=O)c2ccc(F)cc2)sc(C(=O)Nc2cccc(Cl)c2C)c1C returned Measles inh 0.87.
`CCN(CC)CCNc1ccnc2c1ccc1nsnc12` gave Measles inh -0.17.
Screening Cn1c(=O)c2c(nc(SCc3cccc(Br)c3)n2C)n(C)c1=O returned Measles inh -0.15.

From PubChem BioAssay

Not all compounds are listed; the hit share may differ from the screen's.
